Screening data deposited in PubChem by Broad Institute.
Tg IFNy HTS = T. gondii growth inhibition with IFN-gamma, primary screen, cell-based | activity change, negative = inhibition, %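 (about 20 µM by stock and volumes)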 | hit rate 3.8% among 69,000 | Toxoplasma gondii growth in IFN-gamma-treated host cells; hits give low values; reference of the scale not given here;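 active = below -70%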;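 note: host cells are HeLa cells infected with Toxoplasma gondii; parasite growth read as luciferase light; one replicate is shown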
Active calls of the source: *; & = joins results of further samples. These rows are one share of the data; rates above refer to the full screens.

SMILES	Tg IFNy HTS
CCOCC(=O)N1CCC2(CC1)COCCN2CCOC	-5
COc1ccc(S(=O)(=O)N(C)C[C@@H]2OCCCC[C@H](C)Oc3ccc(NC(=O)Cc4ccccc4)cc3C(=O)N([C@@H](C)CO)C[C@H]2C)cc1	-125*
Cc1nc(C)n(CCNS(=O)(=O)c2ccc3c(c2)NC(=O)C(C)O3)n1 (stereo not given)	16
CCO[C@H]1CCN(C(=O)C2CCOC2)[C@H]1Cc1ccccc1 (stereo not given in full)	-42
CC(C)NC(=O)N1CC(=O)N2[C@H](CO)[C@@H](c3ccc(/C=C/c4ccccc4)cc3)[C@@H]2C1	-32
CN1C(=O)CO[C@H]2CN(C(=O)NCc3cccnc3)C[C@@H]21	70
c1cc(C2CCCC2)nc(NCCC2CCOC2)n1 (stereo not given)	75
COCc1cnc2n1CCN(C(=O)c1oc3ccccc3c1C)C2C (stereo not given)	1
O=C(NC(=O)N1CCCCC1)c1cc(Br)cc(Br)c1	131
Cc1c(S(=O)(=O)N2CCC3(CC2)Nc2cc(F)ccc2-n2cccc23)cnn1C(F)F	18
CCc1nc(OCC(=O)Nc2ccc(Br)cc2)c2ccccc2n1	-8
COc1ccc(N(Cc2nc(-c3ccccc3OC)oc2C)S(=O)(=O)c2cccs2)cc1	-40
Cc1cc2ccccc2n1CCC(=O)N(C)CCc1ccccn1	-3
c1cncc(CN2CCOC(CC3CCCCC3)C2)c1 (stereo not given)	5
O=C(CN1CCCN(C(=O)C2CCCO2)CC1)Nc1nc2ccccc2[nH]1 (stereo not given)	47

Continued (five carried over from the part before).
SMILES	Tg IFNy HTS
CCc1nc(OCC(=O)Nc2ccc(Br)cc2)c2ccccc2n1	-8
COc1ccc(N(Cc2nc(-c3ccccc3OC)oc2C)S(=O)(=O)c2cccs2)cc1	-40
Cc1cc2ccccc2n1CCC(=O)N(C)CCc1ccccn1	-3
c1cncc(CN2CCOC(CC3CCCCC3)C2)c1 (stereo not given)	5
O=C(CN1CCCN(C(=O)C2CCCO2)CC1)Nc1nc2ccccc2[nH]1 (stereo not given)	47
COc1ccc(CC(=O)N2CCC3(CC2)Nc2ccc(C)c(C)c2-n2cccc23)cc1OC	33
Cc1ccc(S(=O)(=O)Nc2cncc(C(=O)N3CCC(C(N)=O)CC3)c2)cc1	23
CCNC(=O)[C@H]1CC[C@@](C)(C(=O)NCc2cc(C(C)(C)C)n[nH]2)C1(C)C	-2
CCc1ccc(-c2cc3c(=O)n(Cc4nc(-c5cc(OC)c(OC)c(OC)c5)oc4C)ccn3n2)cc1	89
CNC(=O)c1cc(=O)n(CC(=O)Nc2cc(OC)cc(OC)c2)c2ccccc12	2
O=C(NC[C@H]1[C@@H](c2ccccc2)[C@@H](CO)N1C(=O)C1CCC1)NC1CCCC1	-16
O=C1CCCN1Cc1nnc2n1CCCN(Cc1ccco1)C2	6
COc1ccc(CCn2c(C)cc3c(c2=O)C(c2ccncc2)C(C#N)=C(N)O3)cc1OC (stereo not given)	-9
COc1ccc(C)cc1NC(=O)C(=O)NCCc1csc(-c2ccc(C(F)(F)F)cc2)n1	88
CCOc1ccc(-c2nccn2CCc2cn[nH]c2)cn1	-6
COc1ccc(-c2nc3c(s2)CN(C(=O)Nc2cc(C)ccc2C)CC3)cc1OC	21
COCC1CCC2(CCN(S(C)(=O)=O)CC2)N1CC1CC1 (stereo not given)	-6
COc1ccc(CN2CCc3nc(-c4cnccn4)[nH]c(=O)c3CC2)cc1OC	43
Cc1[nH]cnc1-c1c(-c2ccccc2)ncn1Cc1cccnc1-n1cncn1	147
Cc1ccc(C(=O)c2oc3ccccc3c2N)cc1	-50
Cc1cc(C(=O)N2CCCC3(C2)Nc2ccccc2NC3=NC(C)(C)C)nn1C (stereo not given)	-18
COc1ccc(NC(=O)N2CCC(c3nc(-c4cccnc4)n[nH]3)CC2)cc1	59
N#Cc1ccc(C#CCOC(=O)c2cccs2)cc1	34
CN(C)c1ccc(/C=C/c2ccccc2)cc1	162
CCC(Oc1ccccc1)c1nc(CC2CCN(C)CC2)no1 (stereo not given)	-30
OC[C@@H]1Nc2ccc(C3=CCCCC3)cc2[C@@H]2[C@H]1CCN2Cc1nccs1	9
CNC(=O)NC(=O)CSc1ncnc2sc(-c3ccccc3)cc12	9
COc1ccc2c3c([nH]c2c1)[C@@H](CO)N(Cc1ccccn1)CC31CN(Cc2cccc(F)c2)C1	319
Cc1ccccc1C(=O)Nc1cnc(N2CCC(C(N)=O)(N3CCCCC3)CC2)c(C(=O)O)c1	3
CCOc1ccccc1CNC(=O)Cn1ncc2c(N3CCOCC3)ncnc21	57
O=C(CCO)N1CCOC2C(COc3ncccn3)CCC21 (stereo not given)	-8
FC(F)(F)CCN1C[C@@H]2OCCN(c3cnccn3)[C@H]2C1	-13
Cc1ccc2oc(=O)n(CCC(=O)N3CCC4(CN(C)C(=O)O4)C3)c2c1 (stereo not given)	-3
CN1CCN(C(=O)C[C@H]2CC[C@H]3[C@@H](COC[C@H](O)CN3CC3CCCCC3)O2)CC1	-49
CC1CCN(CCCC(=O)c2ccc(F)cc2)CC1	12&19
CCn1nnc2c1C(COC)CN(Cc1ccoc1)C2 (stereo not given)	-14
COCCN(C)CC1COC2(CCCN(C(=O)c3cnn4cccnc34)C2)C1 (stereo not given)	5
COc1ccc(F)c(CN2CCCC(O)(CN(C)Cc3cnccn3)C2=O)c1 (stereo not given)	1
Cc1ccc(-c2nc(Cn3nnc(C(=O)NCCc4ccccc4)c3C)c(C)o2)cc1	-49
O[C@@H](COc1cccc2ncccc12)CN1CCN(C2c3ccccc3[C@@H]3[C@H](c4ccccc42)C3(F)F)CC1 (stereo not given in full)	-61
CCN1CCOCC2(CCCN(C(=O)c3ccc(-n4cccc4)cc3)C2)C1 (stereo not given)	18
Cc1oc(-c2ccc(C(C)C)cc2)nc1Cn1cnc2nc3c(cc2c1=O)CCCC3	5
Clc1cccc2c1CCN(c1ncnc3c1CCNC3)C2	-26
C1=CCC(CN(CCCn2ccnc2)Cc2cccnc2)CC1 (stereo not given)	-19
Cc1csc(CN2C[C@H]3COC[C@@]3(C(=O)NCc3ccco3)C2)n1	-38
Cc1cnc(CNC(=O)CCCCN2Cc3ccccc3C2=O)cn1	-36
O=C(NCCc1cnc2ccccn12)c1cc2n(n1)CCNC2	2
CCOc1ccc(C(=O)C2CC(=O)Nc3c2c(C2CC2)nn3C)cc1OCC (stereo not given)	-66
C1=C(N2CCOCC2)/C(=C/c2nc3ccccc3[nH]2)CC1	4
CCCCN(CCCC)c1ncnc2c1sc1nc3c(cc12)COC(C)(C)C3	-103*
Cc1ccc(C2(O)CCN(C(=O)c3ccccc3-c3ncc[nH]3)CC2)nc1	-1
CCN1c2cc(C)ccc2-n2cccc2C12CCN(C(=O)Nc1cccc(C)c1)CC2	-59
CNC(=O)N1CCc2cc(C(=O)NCC3CC3)c(NCC3CC3)nc2CC1	-36
CCC(CC)C(=O)N1CCC2(CC1)COCCN2CCN(C)C	-44
CCN1c2ccccc2C(=O)NC12CCN(C(=O)Cc1cccc(F)c1)CC2	80
COc1cccc(CN2CCC3(CC2)CC(OCC2CC2)CO3)c1 (stereo not given)	-14
COc1cc2ncnc(N3CCCC3)c2cc1OC	6
CCOC(=O)c1csc(Nc2ccncc2)n1	13
CCN1c2cc(C)ccc2-n2cccc2C12CCN(C(=O)Nc1ccccc1OC)CC2	-88*
CC(=O)N1CCN(C(C)C)C(c2nnc3ccc(C(=O)N4CCCC4)cn23)C1 (stereo not given)	-35
Cc1ccc(C(=O)NCc2ccco2)cc1	13
O=C(c1cc2cccnc2n(Cc2ccccc2)c1=O)N1CCCc2ccccc21	-3
COc1ccc(C2CCCN2CC(O)c2cccs2)c(OC)c1 (stereo not given)	153
O=C1OCC2(CCN(C(=O)c3ccc(-c4ccccc4Cl)o3)CC2)O1	63
Cc1nc2n(CCN3CCCCC3)c3ccccc3n2n1	-4

Reformatted bar-delimited: three of the compounds above
Compound | Tg IFNy HTS
COc1cccc(CN2CCC3(CC2)CC(OCC2CC2)CO3)c1 (stereo not given) | -14
COc1cc2ncnc(N3CCCC3)c2cc1OC | 6
CCOC(=O)c1csc(Nc2ccncc2)n1 | 13

Structural class: the entries above with a CF3 group (2)
SMILES	Tg IFNy HTS
COc1ccc(C)cc1NC(=O)C(=O)NCCc1csc(-c2ccc(C(F)(F)F)cc2)n1	88
FC(F)(F)CCN1C[C@@H]2OCCN(c3cnccn3)[C@H]2C1	-13

New compounds follow
SMILES	Tg IFNy HTS
NC(=O)c1cc(SC(F)(F)F)cc(SC(F)(F)F)c1	-27
CSc1ncc(C(=O)N2CCN(CCOc3ccccc3Cl)CC2)cn1	36
O=C(CN1C(=O)CCc2cc(S(=O)(=O)N3CCOCC3)ccc21)Nc1ccc(F)cc1	35
CCOC(=O)C1CCN(CC(=O)NCCC2=CCCCC2)CC1	2
CC(C)(C)C(=O)CSc1nc(SCC(=O)C(C)(C)C)c2ccccc2n1	23
COc1cc2c(cc1OC)C(c1ccc(N)cc1)=NNC(=O)C2	10&11
COCC1CC2(CCN(C(=O)C3CCOCC3)CC2)CN1c1ncccn1 (stereo not given)	-10
NCC1Cc2cc(-c3ccccc3OCCn3ccnc3)cc(Cl)c2O1 (stereo not given)	-81*
COc1cccc(-c2nnc(-c3ccccc3NC(=O)c3ccc(C(F)(F)F)cc3)o2)c1	-1
CN(CCNC1CCN(c2ccc(F)cc2)C1)S(C)(=O)=O (stereo not given)	11
C[C@H]1CN([C@@H](C)CO)C(=O)c2cc(C#Cc3ccccc3)cnc2O[C@@H]1CN(C)C(=O)c1ccccc1	-28
Cc1nn(C)cc1NC(=O)C[C@H]1CC[C@@H]2[C@@H](COc3ccc(NC(=O)C4CCOCC4)cc3C(=O)N2C)O1	-13
CCCNC(=O)N1CC2(CN(Cc3cccc(F)c3)C2)c2c([nH]c3cc(OC)ccc23)[C@H]1CO	148
O=C(c1ccccc1)c1c[nH]c2ccccc12	-45
Cc1cc(-n2cccn2)ccc1CN1CCCC(OCc2cccnc2)C1 (stereo not given)	7
Cc1noc(C)c1C(=O)N1CCC2(CC1)CC1(CO2)NC(=O)c2ccccc2N1 (stereo not given)	-6
CCN(CC)c1ncnc2c1cnn2CC(=O)NCc1ccc(F)cc1	-94*
CN1CCC2(CCN(C(=O)c3cc(C(F)(F)F)[nH]n3)CC2)C1	-2
Cc1cc(C)cc(S(=O)(=O)N2CCC(C(=O)NCCc3csc(-c4ccccc4)n3)CC2)c1	15
CCCc1nc(CN(CC)C(=O)c2ccc(C(C)=O)s2)no1	118
C=CCn1c(C(=O)NCc2ccccn2)cc2cc(S(=O)(=O)N(C)C)ccc21	20
COc1cccc(-c2ccc3c(c2)[C@@H]2[C@@H](CCN2S(=O)(=O)c2ccccc2F)[C@@H](CO)N3)c1	-65
O=C(O)CSCC(=O)NCc1ccc(-c2cccs2)s1	8
CCOC(=O)c1[nH]c(C)c(CN2CC3CCCN3C[C@H]2C)c1C (stereo not given in full)	23
CCc1[nH]c2ccc(CNc3ncc(F)c(N4CCOCC4)n3)cc2c1C	-48
Cc1c(-c2n[nH]c(=S)n2-c2ccccc2)sc2nc3n(c(=O)c12)CCC3	15
CC(=O)c1cc2c(s1)SCC(=O)N2	23
CC(=O)NCC(=O)N1CCC2(CC(=O)N(c3ccc4c(c3)OCO4)C2)C1 (stereo not given)	98
CSc1nnc(C2CCCN2C(=O)C(C)N2C(=O)C(C)Oc3ccccc32)n1C (stereo not given)	-7
CCc1c(C)c2ccc(OCC(=O)OC(C)C)c(C)c2oc1=O	37
COc1ccc(-c2ccccc2[C@H]2[C@@H](CO)N(C(=O)C3CCC3)[C@H]2C#N)cc1	-13
O=C(Cn1ncc2c(N3CCN(c4ccccc4)CC3)ncnc21)Nc1ccc2c(c1)OCCO2	-32
N#C[C@H]1[C@H](c2ccccc2)[C@@H](CO)N1C(=O)c1ccccc1F	-13
COc1cc2c(cc1OC)C(c1ccccc1Cl)N(c1ccc(C)cc1)C(=O)C2 (stereo not given)	-91*
c1ccc(C2CCCCN2Cc2ccc3c(c2)OCCO3)nc1 (stereo not given)	66
CC(C)CN1C[C@@H]2CCN(C(=O)C3CCCO3)CC[C@H]2S1(=O)=O (stereo not given in full)	4
O=C(c1cncc(-c2ccc(-c3ccn[nH]3)cc2)n1)N1CCCCC1	11
COc1ccc2c3c(n(C)c2c1)[C@H](CO)N(C(=O)Nc1ccc(F)cc1)CC31CCN(C(=O)Nc2c(C)noc2C)CC1	12
CC(C)NC(=O)N1CCc2onc(C(=O)Nc3cccnc3)c2C1	85
CCOC1CC2(CCN(C(=O)Cc3cccc(F)c3)CC2)C1	71
OC(Cc1ccccc1)(c1ccc(F)cc1)C(CN1CCOCC1)c1ccccc1 (stereo not given)	-63
Cc1ccc(C)c(C(C)NC(=O)Cc2nc(-c3ccncc3)n[nH]2)c1 (stereo not given)	-3
COc1ccc(-c2nc(C)c(CCNC(=O)C(=O)Nc3cccc(OC)c3)s2)cc1	487
O=C(C[C@@H]1CC[C@@H](NC(=O)c2ccc3c(c2)OCO3)[C@@H](CO)O1)NCc1ccc(Oc2ccccc2)cc1	-48
Cc1nc(-c2ccc(F)cc2)sc1CCNC(=O)c1ccccc1Cl	-72*
COCC(=O)N1[C@@H](C#N)[C@@H](c2ccccc2-c2cccc(C)c2)[C@@H]1CO	-7
C[C@H](CO)N1C[C@H](C)[C@@H](CN(C)C(=O)Nc2ccc3c(c2)OCO3)OCCCC[C@H](C)Oc2ccc(NS(=O)(=O)c3ccc(F)cc3)cc2C1=O	-20
